Screening results deposited in PubChem by National Center for Advancing Translational Sciences (NCATS).
HSD17B inh – qHTS Assay for Inhibitors of HSD17B4, hydroxysteroid (17-beta) dehydrogenase 4; 75,000 compounds, 7.6% hits; recombinant HSD17B10, NADH fluorescence kinetic; many of its hits are not listed in these tables; AID 893, 2007; Potency, µM (series often up to 57.1 µM), inactives show at the top dose activity change, negative = inhibition, actives largely listed as inhibitors; active = well fitted inhibition curve with a large enough effect; inconclusive = small, poorly fitted or top-dose-only effect; inactive = no such curve, though single readings can be large or run the other way;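 note: the protocol describes HADH2 (HSD17B10) and not the HSD17B4 of the title; nearly all actives have a fitted effect of over 70% in size; most hits overshoot -100% by far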
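20 nM HADH2, pH 9.0 Tris/Tween; cpd preinc 15 min RT; start w/ 1 mM NAD+ + 90 uM b-hydroxybutyryl-CoA; kinetic fluor ex360/em450 q30s x 4 min; delta last-first.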
* = called active by the depositor; ? = inconclusive; [ ] = another dose, or the depositor's remark. % is set by controls: 0 for no effect and ±100 for the full control effect; potency is the fitted concentration of half-maximal effect. The list is partial. The share of hits here may be higher or lower than overall.

molecule | HSD17B inh
O=c1cc(NCc2ccco2)c2ccccc2o1 | -5.8%
Cc1cnc(CNc2ncnc3ccc(-c4ccccc4C(F)(F)F)cc23)cn1 | 21.0%
C=CCn1c(O)c(C(CC)=NCc2cccnc2)c(=O)[nH]c1=O | -1.2%
CN(C)Cc1nc2c(c(=O)[nH]1)C1(CCCCC1)Cc1ccccc1-2 | 0.5%
CCOc1cccc(C(=O)Nc2ccccc2N2CCN(C(=O)C(C)C)CC2)c1 | 0.6%
CNC(=O)c1nnn(Cc2ccccc2)c1NC(=O)C(F)(F)F | -5.5%
CCOC(=O)N/N=C1/C[C@@H](O)[C@@H](O)[C@@H]2[C@@H]3C(=O)N(CC)C(=O)[C@H]3CC[C@H]12 | 7.2%[11.4 µM]
Cc1c(NC(=O)CCC(=O)N2CCCCC2)c(=O)n(-c2ccccc2)n1C | 8.6%
Cc1ccc(Cn2nnnc2CN2CCC(O)(c3ccccc3F)CC2)cc1 | 7.8%
COc1ccccc1C(=O)NC(C)C(c1cccs1)N1CCN(C)CC1 (stereo not drawn) | 11.5%
CC(Oc1ccc(Cl)cc1Cl)C(=O)N(Cc1ccco1)C1CCS(=O)(=O)C1 (stereo not drawn) | -2.7%
Cn1c(SCC(=O)Nc2ccc(N3CCOCC3)c(Cl)c2)nnc1C(O)c1ccccc1 (stereo not drawn) | 32.9%[activator]
Cc1noc(C)c1C(=O)N1CCN(C(=O)c2sc3cc(Cl)ccc3c2Cl)CC1 | -14.4%
COC(=O)c1ccc(C(NC(=O)OCc2ccccc2)/C(C)=C/[C@@H](C)C(=O)NC2CCCCC2)cc1 (stereo partly drawn) | 25.4%
CCOC(=O)c1ccccc1NC(=O)Cn1cnc2c(oc3ccccc32)c1=O | -10.4%
CCc1ccc(NC(=O)C2CC=CCC2C(=O)O)cc1 (stereo not drawn) | 3.0%
CSc1ccc(CNc2ccccn2)cc1 | -5.0%
CCC(=NCc1ccccc1)C1=C(O)C(C(=O)OC)C(C)(C)CC1=O (stereo not drawn) | -5.1%
COc1ccc(C2C(C#N)=C(N)Oc3n[nH]c(C)c32)cc1Cn1nnc2ccccc21 (stereo not drawn) | ?
CCn1c(C(=O)NCCCc2ccccc2)cc2sccc21 | 0.1%
CCOC(=O)Cc1c(C)nc2c(-c3ccccc3)c[nH]n2c1=O | 25.1µM*
Nc1nc(CSc2nnnn2-c2ccc(F)c(Cl)c2)nc(N2CCOCC2)n1 | -2.5%
COCC1C2CC[C@H]3C(OCc4ccc(F)cc4C(F)(F)F)OC[C@]4(C)[C@H]3C2=C(CN4C(=O)OC(C)(C)C)[C@H](C)C1COC (stereo partly drawn) | -18.8%
Cc1ccc2c(CSc3nc4ccccc4c(=O)n3CCCO)cc(=O)oc2c1 | -4.3%
COCc1nnc(NC(=O)c2ccc(NC(=O)C(C)C)cc2)s1 | -6.2%
CCC(C)NC(=O)CSc1nc2n[nH]c(C)c2c(=N)n1-c1ccc(OC)cc1 (stereo not drawn) | ?
CCN(CC)CCCN1C(=O)CSC1c1ccc2c(c1)OCO2 (stereo not drawn) | 8.7%
CC(C)Oc1cccc(-c2cc(C(=O)N3CCN(S(C)(=O)=O)CC3)c3ccccc3n2)c1 | -8.2%
CC(=O)c1ccc(NC(=O)C2CCN(S(=O)(=O)c3cccc4cccnc34)CC2)cc1 | -1.3%
NC(=O)C(F)(F)C12OC3C4C5CC(C6C5C3C61)C42 (stereo not drawn) | 6.0%
O=C1CC(c2ccc(F)cc2)C2=C(CCCC2=O)N1 (stereo not drawn) | 3.8%
CCC(/C=C/C(C)C1CCC2C3CC=C4CC(O)CC[C@@]4(C)C3CC[C@@]12C)C(C)C (stereo partly drawn) | -3.6%
CSc1ccccc1NC(=O)Cn1c(-c2cscn2)nc2ccccc21 | 2.8%
CCCOc1ccc(NC(=O)c2c(-c3ccccc3)noc2C)cc1 | -8.5%
CCCCC(=O)Nc1ccc(F)c(Cl)c1 | 0.7%
COc1cc2c(cc1O)CC[C@@H]1[C@@H]2CC[C@@]2(C)[C@H](O)CC[C@H]12 | 166.0%[activator]
COC(=O)CSc1cc(C)nc(NC(C)=O)n1 | -0.1%
CCN(CC)S(=O)(=O)c1ccc(-c2nnc(SCc3nnc(-c4ccc(C)cc4)o3)o2)cc1 | -5.2%
Cc1nnc(N2CCN(c3ccccc3)CC2)[nH]c1=O | -4.1%
O=C(Nc1ccc2c(c1)OCCO2)C1CCCN(S(=O)(=O)c2cnc[nH]2)C1 (stereo not drawn) | 6.0%
CC1(C)O[C@H]2[C@@H](c3[nH]nc4c(=O)[nH]c(=O)[nH]c34)OC[C@H]2O1 | -0.7%[11.4 µM]
COc1ccc(C)cc1-n1nnnc1SCc1csc(C)n1 | 1.4%
O=S(=O)(c1ccc(C2CCCCC2)cc1)N1CCN(c2ncccn2)CC1 | 7.6%
O=C(C1CC1)N1CCc2cc(Br)cc(S(=O)(=O)NCc3ccccn3)c21 | 0.7%
O=S(=O)(c1ccccc1)N1CCN(CC(O)COc2ccc3c(c2)CCC3)CC1 (stereo not drawn) | 0.2%
Cc1cccc(C)c1 | 5.8%
O=C(Nc1ccc(C2CCCCC2)cc1)C1CCN(c2ncccn2)CC1 | -1.7%
Cc1cc(-c2nc3c4c5c(sc4[nH]c(=O)n3n2)CCC5)c(C)o1 | 12.6µM*
O=c1[nH]c2ccccc2nc1NCCN1CCOCC1 | 25.1µM*
C=CCn1c(SCC(=O)N2CC(=O)Nc3ccccc32)nc2scc(-c3cccs3)c2c1=O | -17.7%

The listing continues:
molecule | HSD17B inh
N#Cc1cnn(Cc2ccccc2)c1/N=C/N1CCOCC1 | ?
Cc1cc(C)cc(C(=O)N2CCC(C(N)=O)CC2)c1 | 1.3%
c1ccc(-c2cc(-c3nc(-c4cccnc4)no3)c3ccccc3n2)cc1 | -10.3%
COc1cccc(C(=O)c2cc3ccc(O)cc3oc2=O)c1 | -11.0%
CC(=O)Nc1cc(C(N)=O)c(Cl)cc1Cl | -1.5%
CCc1nc2ccccc2c(C(=O)OCC(=O)NCc2ccco2)c1C | -7.7%
CC(=O)Nc1ccc(-c2ccccc2)s1 | 9.1%
COCCn1c(SCC(=O)c2ccc3c(c2)OCCO3)nnc1C(C)C | -4.6%
Cc1ccc(Cl)cc1NC(=O)C1CCCN(S(=O)(=O)c2c(C)noc2C)C1 (stereo not drawn) | 1.0%
N#Cc1ccc(CN2CC[C@@]3(CCCN(C(=O)c4cc(C(F)(F)F)cc(C(F)(F)F)c4)C3)C2)cc1 | 4.7%
COc1ccc2c(=O)c(C(=O)NCCc3ccc(OC)c(OC)c3)c[nH]c2c1 | 19.6%
Cc1c(C(=O)Nn2cnnc2)oc2ccccc12 | -4.4%
NC[C@@H]1O[C@H](O[C@@H]2[C@H](O[C@@H]3O[C@H](CO)[C@@H](COC[C@H]4O[C@@H](CN)[C@@H](O)[C@@H](O)[C@@H]4N)[C@@H]3O)[C@@H](O)[C@@H](N)C[C@H]2N)[C@@H](N)[C@H](O)[C@@H]1O | 1.9%[25.6 µM]
COc1ccc2oc(=O)c(NC(=O)C3CCCCC3)cc2c1 | 5.01µM*
COc1ccccc1OCCOCCn1cnc2ccccc2c1=O | 4.7%
C=CCNC(=O)CSc1nc2sc(C)c(C)c2c(=O)[nH]1 | 3.4%
CCc1nnc(NC(=O)c2ccc(S(=O)(=O)N3CCCCCC3)cc2)s1 | 3.6%
O=C(O)C=Cc1ccc(Cn2ccnc2)cc1 | 2.3%
CC(C)Cc1ccc(/C(=N/O)C(=O)O)s1 | 8.3%
COCCNC(=O)C(OC(=O)c1ccco1)c1ccccc1OC (stereo not drawn) | 3.9%
CN1CC(=O)N(CCOc2ccccc2)C1=O | 1.0%
CS(=O)(=O)c1ccc(Cn2c3c(c4cc(F)cc(F)c42)CCC[C@H]3CC(=O)O)cc1 | 39.8µM*
O=C(Nc1ccc2c(c1)OCCO2)NC1CCCCC1 | 0.3%
CC(=O)Nc1cccc(N2C(=O)CC(Cc3ccccc3)C2=O)c1 (stereo not drawn) | 0.3%
COc1cc(C2C(C#N)=C(C)NC3=C2C(=O)CC(C)(C)C3)cc(OC)c1O (stereo not drawn) | -14.5%

The list goes on:
SMILES | HSD17B inh
Cc1cc(C(=O)N2CCN(c3ccccc3)CC2)no1 | -2.0%
COc1ccc(C(=O)N(CCCO)C(C)C(=O)NC2CCCCC2)cc1OC (stereo not drawn) | -1.8%
CCC(C)(C)n1nnnc1C(c1ccc(C)cc1)N1CCCC1 (stereo not drawn) | 6.1%
O=C1C2=CC[C@H]3C(=O)N(Cc4ccccc4)C(=O)[C@@H]3[C@@H]2[C@H](O)[C@@H]2O[C@H]12 | -5.6%[11.4 µM]
COc1ccc(S(=O)(=O)N2CC(O)CC2C(=O)OCC(=O)Nc2ccc(Cl)cn2)cc1 (stereo not drawn) | 3.7%
C#CCSc1nc(-c2cccs2)ccc1C#N | 20µM*
O=C(NCCN1CCOCC1)c1ccc(-n2c(=O)c(=O)[nH]c3ccccc32)cc1 | 0.8%
c1ccc2c(c1)oc1c(NCCN3CCOCC3)ncnc12 | 3.7%

3 records drawn at random from the list so far:
SMILES | HSD17B inh
C#CCSc1nc(-c2cccs2)ccc1C#N | 20µM*
c1ccc2c(c1)oc1c(NCCN3CCOCC3)ncnc12 | 3.7%
COc1ccc(S(=O)(=O)N2CC(O)CC2C(=O)OCC(=O)Nc2ccc(Cl)cn2)cc1 (stereo not drawn) | 3.7%

Following part:
SMILES | HSD17B inh
O=c1c(CCc2ccccc2)nc2cncnc2n1-c1ccccc1 | ?
O=C(O)/C=C\c1ccc(Cn2ccnc2)cc1 | 0.8%[25.6 µM]
Cc1ccc2cc(CN(CCCN(C)C)C(=O)NCc3ccccc3)c(=O)[nH]c2c1C | ?
Cc1ccc2c(c1)CCCN2C(=O)c1c(C)noc1C | 4.2%
C[C@H]1CN(CCO)CCN1c1ccccc1 | -0.8%[11.4 µM]
N#Cc1c(/N=C/c2ccco2)oc(-c2ccccc2)c1-c1ccccc1 | ?
O=C(O)C1C2C=CC(C2)C1C(=O)Nc1ccc(C(=O)N2CCCCC2)cc1 (stereo not drawn) | -0.1%
CCCCCCCN | -2.3%
O=C(c1cccs1)N1CCN(S(=O)(=O)Cc2ccccc2)CC1 | -12.9%
CCCCn1c(=O)n(Cc2cccc(F)c2)c(=O)c2c1ncn2Cc1ccco1 | -10.9%
O=C(Nc1cnn(Cc2ccc(Cl)c(Cl)c2)c1)c1nc2ncccn2n1 | 0.0%
CCCCn1c(SCC(=O)N2CCCCC2)nc2cc(S(N)(=O)=O)ccc21 | -0.3%
C=C(C)COc1ccc(-c2[nH]ncc2Oc2ccccc2OC)c(O)c1 | -6.9%
CC1=C(C(=O)OC2CCCCC2)C(c2ccco2)C2=C(CC(C)(C)CC2=O)N1 (stereo not drawn) | 0.8%
COc1ccc(OC)c(C2C(C(=O)O)c3ccccc3C(=O)N2C)c1 (stereo not drawn) | 3.1%
Cc1nc2ccccn2c1P(=O)(N1CCCCC1)N1CCCCC1 | 25.1µM*

The closing 2 records of the part above come first, to join the parts:
SMILES | HSD17B inh
COc1ccc(OC)c(C2C(C(=O)O)c3ccccc3C(=O)N2C)c1 (stereo not drawn) | 3.1%
Cc1nc2ccccn2c1P(=O)(N1CCCCC1)N1CCCCC1 | 25.1µM*
c1ccc2c(c1)nnn2Cc1nnc2sc(-c3ccncc3)nn12 | 0.0%
CC1CCCCN1S(=O)(=O)c1ccc(NC(=O)CSc2nnnn2C)cc1 (stereo not drawn) | 1.1%
COC(=O)c1ccc(C)c(NC(=O)CN(c2ccc3c(c2)OCO3)S(C)(=O)=O)c1 | 8.3%
O=C(NCCN1CCNCC1)c1ccccn1 | -1.4%
COc1ccc(CSc2nc(N3CCOCC3)c3c(c2C#N)CC(C)(C)OC3)cc1 | ?
O=C(C(Cc1ccccc1)n1cccc1)N1CCN(c2ncccn2)CC1 (stereo not drawn) | ?
CCCCCCC(=O)Cc1cc(OC)c(OC)cc1C=C(C(=O)OCC)C(=O)OCC | -3.0%[11.4 µM]
CCCC(=O)NCCCc1nc2ccccc2n1CCC | 0.3%

A draw from above in order of formula weight, lowest first:
SMILES | HSD17B inh
CCCC(=O)NCCCc1nc2ccccc2n1CCC | 0.3%
O=C(C(Cc1ccccc1)n1cccc1)N1CCN(c2ncccn2)CC1 (stereo not drawn) | ?
COC(=O)c1ccc(C)c(NC(=O)CN(c2ccc3c(c2)OCO3)S(C)(=O)=O)c1 | 8.3%

Next section
SMILES | HSD17B inh
Cc1ccc2oc(=O)c3cnn(CC(=O)N4CCCc5ccccc54)c3c2c1 | -10.9%
CC(C)(N)C(=O)N[C@@H]1C(=O)N2[C@@H]1SC(C)(C)[C@H]2C(=O)O | 14.8%[11.4 µM]
O=C(NCc1ccco1)C(c1cccs1)N(C(=O)Cc1cccs1)c1ccccc1 (stereo not drawn) | -13.5%
CC(=O)Nc1nc2ccccc2n1CCOc1ccccc1 | 10.8%
CCN(CC)CCCNC(=O)C1c2ccccc2C(=O)N1Cc1ccc(C)cc1 (stereo not drawn) | 6.7%
Cc1cccc(-c2cc3nc4c(c(N5CCC6(CC5)OCCO6)n3n2)CCCC4)c1 | 0.6%
Fc1ccc(-c2cc(C(F)(F)F)nc(N3CCCCC3)n2)cc1 | 25.1µM*
Cc1ccccc1CN1C2=NCCN2C(=O)C2=C1CCN(Cc1ccccc1)C2 | -11.3%[11.4 µM]
CC(=O)Nc1ccc(C(=O)OCC(=O)NC(=O)NC2CCCCC2)cc1 | 6.1%
CCCn1c(SCC(=O)Nc2ccccc2-c2ccccc2)nnc1-c1ccoc1C | -6.8%
Cc1cccn2c(=O)c3cc(C(=O)N4CCc5ccccc54)n(C)c3nc12 | ?
